High-throughput results: PubChem BioAssay, Southern Research Institute
Mtb H37Rv = Confirmatory growth inhibition assay against Mycobacterium tuberculosis H37Rv, potency (AID 1949); most inactive calls were filed without a number and no value below 0 was filed; inhibition, % at 10 µg/mL, or IC50 in µg/mL where a hit was titrated; 100,000 tested, 1.6% active;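 active means confirmed in a dose series; inconclusive means about 50% or more but not retested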;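 further: bacteria grown 7 days with compound before Alamar blue readout; 0% = untreated bacteria and 100% = reference antibiotic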
Active calls of the source: *; i = inactive; ? = inconclusive. This is a subset, so the mix of outcomes need not match the whole.

SMILES	Mtb H37Rv
COc1ccc(Cc2nnc(SCC(=O)N3CCN(c4ccccc4)CC3)o2)cc1	i
COc1c(Cl)cc(Cl)cc1C(=O)NC(=S)Nc1cc(C(F)(F)F)ccc1Cl	i
O=C(CCSc1nnc2ccccn12)Nc1cccc(-c2nc3ccccc3s2)c1	i
Cc1ccc(S(=O)(=O)N(CC(=O)Nc2ccc(F)cc2F)c2ccc(C)c(C)c2)cc1	i
COC(=O)c1ccc(/C=C(\C#N)S(=O)(=O)c2ccc(Cl)cc2)cc1	i
COc1ccc2cc(S(=O)(=O)N3CCCCC3)ccc2c1	i
O=C(O)c1c[nH]c2c(Cl)cccc2c1=O	i
CC(=O)c1cccc(NC(=O)CN(c2ccccc2F)S(=O)(=O)c2ccc(C)cc2)c1	i
COc1ccc(C)cc1S(=O)(=O)NCCC1=CCCCC1	i
CCOC(=O)N1CCN(C(=S)Nc2ccc(OC)cc2OC)CC1	i
O=C(Oc1ccccc1Cl)c1ccc(Br)o1	i
O=C(CCc1ccccc1)NC(=S)N1CCOCC1	i
COC(=O)c1cccc(NC(=O)CSc2n[nH]c(-c3ccc(Cl)cc3)n2)c1	i
CCCN(CCC)C(=O)Cc1coc2ccc3ccccc3c12	8.1%
COc1cccc(-c2ccc(C#N)c(SCC(=O)Nc3ccccc3Br)n2)c1	i
CCOc1ccc(NC(=O)c2ccc(C)c(I)c2)cc1	i
C=CCN(CC=C)C(=O)C(CC)c1ccccc1 (stereo not drawn)	i
Cc1c(C(=O)NC(=S)Nc2ccccc2N2CCCC2)cccc1[N+](=O)[O-]	?
CN1C(=O)C(=Cc2ccc(Sc3ccccc3)o2)C(=O)N(C)C1=O	18.7%
CCc1sc(NC(=O)Cc2ccc(F)cc2)nc1-c1ccccc1	0.7%
Cc1sc2nc(SCC(=O)N(CCO)CCO)n(C3CCCCC3)c(=O)c2c1C	i
CCOC(=O)c1cccc(NC(=O)COc2ccc(Cl)cc2C)c1	12.8%
CN(C)CCNS(=O)(=O)c1cc(Cl)ccc1Cl	i
NC(=O)c1c(NC(=O)CSc2ncn[nH]2)sc2c1CCC2	1.2%
CC12CCC(C(=O)Oc3ccccc3)(OC1=O)C2(C)C (stereo not drawn)	i
CC(=O)NC(=S)Nc1ccc(S(=O)(=O)NC2CCCCC2)cc1	i
CCOc1ccccc1N(CC(=O)Nc1ccc(Br)c(Cl)c1)S(C)(=O)=O	i
COc1ccc(C)cc1NC(=O)CN(C)S(=O)(=O)c1ccc(Cl)cc1	i
CN(C)C(=O)Oc1cc2ccccc2cc1OC(=O)N(C)C	i
CCOc1ccc(N(CC(=O)NC2CCCC2)S(C)(=O)=O)cc1	i
CC(=O)NC1=NN(C(C)=O)C2(S1)C(=O)N(C(C)=O)c1ccc(Cl)cc12 (stereo not drawn)	i
O=C(CC1Sc2ccc(C(F)(F)F)cc2NC1=O)Nc1ccccc1OC(F)F (stereo not drawn)	i
O=C(Nc1sc2c(c1C(=O)c1ccccc1)CCCC2)c1ccc(N2C(=O)CCC2=O)cc1	i
C=CCN(CC=C)C(=O)Nc1ccc2nsnc2c1	i
Cc1ccccc1CN(c1cccc(C)c1C)S(C)(=O)=O	5.7%
Cn1c2c(c(=O)n(C)c1=O)C(c1cccc3ccccc13)C1=C(N2)c2ccccc2C1=O (stereo not drawn)	i
CCN(CC)CCN1C(=O)C(O)=C(C(=O)c2ccco2)C1c1cc(OC)ccc1OC (stereo not drawn)	i
COc1ccc(Cl)cc1NC(=O)CC1NC2CCCCC2NC1=O (stereo not drawn)	i
CCCn1c(Cc2ccccc2)nnc1SCC(=O)Nc1cccc(C(F)(F)F)c1	i
CCOc1ccc(NC(=O)Cc2cccc3c(S(=O)O)cccc23)cc1	i
CC(=O)O/N=C1/C(=C\c2ccccc2OC(C)=O)N2CCC1CC2	i
CC(=O)Nc1cccc(NC(=O)Nc2ccc(F)cc2)c1	i
CC(C)(C)c1ccccc1NC(=O)CSc1ccccc1	i
C1CCc2c(sc3nc(N4CCOCC4)nc(N4CCOCC4)c23)C1	6.6%
Oc1c(C(Nc2ccccn2)c2cccnc2)cc(Cl)c2cccnc12 (stereo not drawn)	0.3%
COc1ccccc1C(=O)Nc1cccc(NC(C)=O)c1	i
O=C(OCc1nc2ccccc2s1)c1cccs1	55.3%
Cc1cc(/C=C/[N+](=O)[O-])c(C)n1-c1cccnc1	?
CCn1c(SCC(=O)NC2CCCCC2)nnc1-c1c[nH]c2ccccc12	i
Cc1ccccc1S(=O)(=O)NC(=O)c1ccccc1	i
Following part
SMILES	Mtb H37Rv
COc1ccc(C(=O)Oc2c(Sc3ccccc3)c(C)nn2C(C)(C)C)c(OC)c1	i
CN(CCO)Cc1ccc2c(c1)OCO2	i
COc1c(C)cc(Br)cc1C(=O)Nc1ccc(NC(=O)c2cccc(Cl)c2)cc1	1.4%
OC1/C(=C/c2cccs2)Oc2ccccc21 (stereo not drawn)	0.5%
CC(=O)N(c1ccc(C)cc1)C1CC(=O)N(c2ccc(C)cc2)C1=O (stereo not drawn)	2.6%
CCOc1ccc(NC(=O)c2cc(-c3ccc(OC)cc3)nc3ccccc23)c([N+](=O)[O-])c1	5.0%
c1ccc(CN2CCN(C3CCN(Cc4cccnc4)CC3)CC2)cc1	i
O=C(CSc1nc2ccccc2c(=O)[nH]1)N1CCc2ccccc21	i
COc1ccc(S(=O)(=O)N(CC(=O)NCc2ccco2)c2ccccc2OC)cc1	i
C=CCn1c(Cc2c[nH]c3ccccc23)nnc1SCC(=O)c1c[nH]c2ccccc12	11.2%
Cc1cccc(C(C)(C)C)c1OCCN1CCOCC1	i
COc1cc(C=O)ccc1Oc1nc2ccccc2n2cnnc12	2.7%
Cc1ccc(N2C(=O)/C(=C\c3cn(CC(=O)Nc4ccccc4)c4ccccc34)C(=O)NC2=S)cc1	i
Cc1nn2c3cc(N4CCCC4)ccc3nc2c2ccccc12	3.0%
CCN(CC)S(=O)(=O)c1ccc(NC(=O)COc2ccc([N+](=O)[O-])cc2)cc1	i
Cc1ccc(NS(=O)(=O)c2ccccc2C(F)(F)F)cc1C	i
c1nnc2c3c4c(sc3ncn12)CCC4	i
CC(C)(C)c1ccc(C(=O)n2cnnc2N)cc1	i
CCC(C)n1c(=N)c(S(=O)(=O)c2ccc(C)cc2)cc2c(=O)n3ccccc3nc21 (stereo not drawn)	0.6%
COCc1[nH]nc2c1C(C(C)C)C(C#N)=C(N)O2 (stereo not drawn)	i

Reformatted: entries from further up.
> Cc1cccc(C(C)(C)C)c1OCCN1CCOCC1
  Mtb H37Rv: i
> COc1cc(C=O)ccc1Oc1nc2ccccc2n2cnnc12
  Mtb H37Rv: 2.7%
> Cc1ccc(N2C(=O)/C(=C\c3cn(CC(=O)Nc4ccccc4)c4ccccc34)C(=O)NC2=S)cc1
  Mtb H37Rv: i
> Cc1nn2c3cc(N4CCCC4)ccc3nc2c2ccccc12
  Mtb H37Rv: 3.0%

Four of the compounds above, comma-delimited.
molecule,Mtb H37Rv
Cc1cccc(C(C)(C)C)c1OCCN1CCOCC1,i
COc1cc(C=O)ccc1Oc1nc2ccccc2n2cnnc12,2.7%
Cc1ccc(N2C(=O)/C(=C\c3cn(CC(=O)Nc4ccccc4)c4ccccc34)C(=O)NC2=S)cc1,i
Cc1nn2c3cc(N4CCCC4)ccc3nc2c2ccccc12,3.0%

Additional records:
SMILES	Mtb H37Rv
COc1ccc(Cl)cc1NC(=O)CCC1CCCC1	i
CC1CC(C)CN(CC(O)COc2ccc3c(c2)CCC3)C1 (stereo not drawn)	9.6%
CC(=O)NC(=S)Nc1cccc(-c2nc3c(ccc4ccccc43)o2)c1	i
COc1ccc(Br)cc1C(=O)Nc1ccc(N2CCCC2)cc1	16.5%
COC(=O)c1ccc(NC(=O)CSc2nnc(C(C)NC(=O)c3ccc(C)cc3)n2C)cc1 (stereo not drawn)	i
COc1ccc(C2CC(=O)C3=C(C2)NC(C)=C(C(=O)Nc2ccc(C)cn2)C3c2ccccn2)cc1 (stereo not drawn)	i
CCC1CCCCN1C(=O)c1cc2cc(Br)cc(OC)c2oc1=O (stereo not drawn)	7.9%
O=C(Nc1ccc(S(=O)(=O)Nc2ccccc2)cc1)N1CCCC1	i
COc1cccc(NC(=O)c2ccccc2N(C)S(C)(=O)=O)c1	i
O=C(CCc1ccccc1)NC(=S)Nc1ccc(C(=O)NCC2CCCO2)cc1 (stereo not drawn)	i
COc1ccc(-c2csc3ncn(Cc4ccc(Cl)cc4)c(=O)c23)cc1	25.9%
Fc1ccc(NC(=S)N2CCN(c3cccc(C(F)(F)F)c3)CC2)cc1Cl	i
CN(C)CCNC(=O)C(=O)Nc1ccc(Cl)cc1	i
NC(=O)c1ccc(NC(=O)C2CCN(C(=O)Cc3ccccc3)CC2)cc1	i
O=C1CC(N(Cc2cccs2)C(=O)Nc2ccccc2)C(=O)N1c1ccc(Cl)cc1 (stereo not drawn)	i
Cc1ccc(NC(=O)c2c(NC(=O)CN3CCCCCC3)sc3c2CCC3)c(C)c1	i
CC1(C)CC(=O)C2=C(C1)N(CCc1ccccc1)C(=O)C2(NC(=O)c1ccc(F)cc1)C(F)(F)F (stereo not drawn)	i
Cc1cc(CNC(=S)Nc2ccc(S(=O)(=O)Nc3ncccn3)cc2)nn1C	i
Nc1nn(S(=O)(=O)c2ccc(Br)cc2)cc1-c1ccccc1	i
Cc1ccc(SCC(=O)NNC(=O)OC(C)(C)C)cc1	0.3%
Cc1ccc(SCCC(=O)N2CCN(c3ccc(F)cc3)CC2)cc1	3.2%
O=C(CC1(O)C(=O)Nc2ccc(F)cc21)c1cccs1 (stereo not drawn)	i
Cc1ccc(Cl)cc1NC(=O)C(=O)NC(C)C	i
Cc1csc(NC(=O)CSCC(=O)Nc2ccccc2)n1	i
N#CCc1ccc(NC(=O)c2ccc(Cl)c(S(=O)(=O)N3CCOCC3)c2)cc1	i
O=C(NCc1ccc2c(c1)OCO2)c1ccc(Br)cc1	i
COC(=O)c1c(NC(=O)C(C)Oc2ccccc2)sc2c1-c1ccccc1CC2 (stereo not drawn)	5.6%
COc1cccc(C(=O)N2CCN(S(=O)(=O)c3ccc(F)cc3)CC2)c1OC	i
O=C(C1COc2ccccc2O1)N1CCc2ccccc2C1 (stereo not drawn)	14.0%
O=C(NCc1cccnc1)c1ccc(COc2cccc3ccccc23)cc1	i

The final 7 entries of the part before lead into the next.
SMILES	Mtb H37Rv
Cc1csc(NC(=O)CSCC(=O)Nc2ccccc2)n1	i
N#CCc1ccc(NC(=O)c2ccc(Cl)c(S(=O)(=O)N3CCOCC3)c2)cc1	i
O=C(NCc1ccc2c(c1)OCO2)c1ccc(Br)cc1	i
COC(=O)c1c(NC(=O)C(C)Oc2ccccc2)sc2c1-c1ccccc1CC2 (stereo not drawn)	5.6%
COc1cccc(C(=O)N2CCN(S(=O)(=O)c3ccc(F)cc3)CC2)c1OC	i
O=C(C1COc2ccccc2O1)N1CCc2ccccc2C1 (stereo not drawn)	14.0%
O=C(NCc1cccnc1)c1ccc(COc2cccc3ccccc23)cc1	i
O=C(NCCCn1ccnc1)c1cc2ncc(Br)cn2n1	i
COc1cc(C=Nn2c(-c3ccc(Cl)cc3Cl)n[nH]c2=S)cc(Br)c1O	i
COC(=O)COc1ccc(C=O)c(Br)c1	i
CCOc1c(CNCc2ccc(F)cc2)cccc1OC	i
CCOC(=O)C1CCN(S(=O)(=O)c2ccc(OCC(=O)OC)cc2)CC1	i
Cc1ccc(OCc2ccc(C(=O)Nc3ccccc3C(N)=O)cc2)cc1	3.1%
CCOC(=O)c1c(NC(=O)C(C)(C)C)sc(C(=O)Nc2cc(C)ccc2C)c1C	i
Cc1cccc(C(=O)Nc2ccc(S(=O)(=O)Nc3nccs3)cc2)c1[N+](=O)[O-]	3.1%
Cc1ccc(-c2c3c(nc4sc(C(N)=O)c(N)c24)CCC3)cc1	?
Cc1cc(C)cc(NC(=O)COc2cc(C)cc3oc(=O)cc(C)c23)c1	i
CCc1cccc2ccc(S(=O)(=O)Nc3ccccc3C)c(CC)c12	2.4%
COCCNCCOCCOc1ccccc1I	i
O=C(c1ccncc1)N1CCN(S(=O)(=O)c2ccc(Cl)s2)CC1	i
Cc1nc(SCC(=O)NNC(=O)c2cccs2)n[nH]1	i
COc1ccc(-n2cccc2/C=C(/C#N)c2nc3ccccc3[nH]2)cc1	i
COC(=O)N1N=C(C)CC1(O)c1cccnc1 (stereo not drawn)	0.6%
O=C(O)c1ccc(NC(=O)C2(c3ccccc3)CCOCC2)cc1	i
CCn1c(Cc2cccc3ccccc23)nnc1SCC(=O)Nc1nccs1	i
Cc1cc(C(=O)Nc2ccc(I)cc2C(=O)O)c(-c2ccccc2)o1	i
CCOC(=O)c1c(NC(=S)Nc2cc(OC)c(OC)cc2C(=O)OC)sc2c1CCCC2	i
COc1cc(NC(=O)c2c(-c3ccccc3Cl)noc2C)c2ncccc2c1	1.9%
CCOC(=O)CNC(=O)c1oc2ccccc2c1C	i
CCOc1ccccc1N(CC(=O)Nc1cccc(F)c1)S(=O)(=O)c1ccccc1	i
COCc1cccc(NC(=O)Cc2cccc3ccccc23)c1	i
O=C(OC1CS(=O)(=O)CC1N(Cc1ccccc1)C(=O)Oc1ccccc1)c1ccccc1 (stereo not drawn)	1.9%
CC(O)c1nc2ccccc2n1CCOc1ccc(Br)cc1 (stereo not drawn)	4.1%
Cc1ccc(OCC(=O)Oc2ccc(F)cc2)cc1	i
COc1ccc(C(=O)COc2cccc(Oc3ccc([N+](=O)[O-])cc3)c2)cc1Br	i
CCOC(=O)N1CCN(C(=O)CN(c2cc(Cl)ccc2Cl)S(C)(=O)=O)CC1	i
COc1cc(NC(=O)Cc2ccccc2OC)cc(OC)c1	i
CC(=O)c1cccc(NC(=O)Nc2ccc(C)cc2Br)c1	i
CCOc1cc(/C=N/NC(=O)c2cc(C)[nH]n2)ccc1OC(=O)c1cccc2ccccc12	1.7%
COCCSc1ccccc1C(=O)Nc1nccs1	3.6%
O=C(NCc1ccccc1)c1cccc(COc2ccc3ccccc3c2)c1	8.3%
Cc1ccc(S(=O)(=O)NC(C)C(=O)O)cc1C (stereo not drawn)	i
N#Cc1ccccc1CSc1nc2ccc(NC(=O)c3ccccc3Br)cc2s1	7.9%
